# Mtb growth = M. tuberculosis H37Rv growth inhibitors, H37Rv strain (AID 1626) | M. tuberculosis H37Rv growth inhibition; higher % means a stronger effect | inhibition, % at 10 µM, or IC50 in µM where a hit was titrated | 0.95% of 220,000 active;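 active means confirmed in a dose series; inconclusive means inhibition above 80% but not taken into the dose series; inactive means below 80% or under 30% at every dose of the series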;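 further: bacteria incubated seven days before Alamar blue readout; 0% = bacteria only wells and 100% = bacteria with antibiotic wells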
# Arbovirus anti = blocks arbovirus infection. inhibition, % at 10 µM. AID 1251. arbovirus infection cell-based antiviral screen. 0.37% of 200,000 active;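 active means inhibition from about 30%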;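 further: bluetongue infection of BSR cells; cell survival read as ATP light after 72 h; 0% = infected wells without compound and 100% = uninfected wells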
# Mtb betalactam = beta-lactam sensitization of Mtb H37Rv; M. tuberculosis H37Rv growth with meropenem, percent inhibition; hits of this screen are not shown here; inhibition, % at 25 µM; 0.27% of 330,000 active; AID 434955;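 active means about 74% or more and at least 40 points above the plate without the antibiotic, then above 30% in a dose series; inconclusive means first-round hits that could not be retested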;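 further: growth measured after seven days incubation then overnight dye step; 0% = bacteria only wells and 100% = bacteria with antibiotic; twin plates without the antibiotic show which effects depend on it; some results filed as inactive read as strong as hits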
# RecA splice inh = blocks M. tuberculosis RecA intein splicing | P9WHJ3 | cell-free RecA intein splicing, fluorescence | inhibition, %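 (about 9 µM by stock and volumes)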 | 0.75% of 290,000 active; in the data active means inhibition above about 30%; inconclusive means no clear call, values can overlap the other calls;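 further: 0% = vehicle wells and 100% = reference inhibitor control wells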
# Target sequence (P9WHJ3 whole entry, looked up, canonical isoform): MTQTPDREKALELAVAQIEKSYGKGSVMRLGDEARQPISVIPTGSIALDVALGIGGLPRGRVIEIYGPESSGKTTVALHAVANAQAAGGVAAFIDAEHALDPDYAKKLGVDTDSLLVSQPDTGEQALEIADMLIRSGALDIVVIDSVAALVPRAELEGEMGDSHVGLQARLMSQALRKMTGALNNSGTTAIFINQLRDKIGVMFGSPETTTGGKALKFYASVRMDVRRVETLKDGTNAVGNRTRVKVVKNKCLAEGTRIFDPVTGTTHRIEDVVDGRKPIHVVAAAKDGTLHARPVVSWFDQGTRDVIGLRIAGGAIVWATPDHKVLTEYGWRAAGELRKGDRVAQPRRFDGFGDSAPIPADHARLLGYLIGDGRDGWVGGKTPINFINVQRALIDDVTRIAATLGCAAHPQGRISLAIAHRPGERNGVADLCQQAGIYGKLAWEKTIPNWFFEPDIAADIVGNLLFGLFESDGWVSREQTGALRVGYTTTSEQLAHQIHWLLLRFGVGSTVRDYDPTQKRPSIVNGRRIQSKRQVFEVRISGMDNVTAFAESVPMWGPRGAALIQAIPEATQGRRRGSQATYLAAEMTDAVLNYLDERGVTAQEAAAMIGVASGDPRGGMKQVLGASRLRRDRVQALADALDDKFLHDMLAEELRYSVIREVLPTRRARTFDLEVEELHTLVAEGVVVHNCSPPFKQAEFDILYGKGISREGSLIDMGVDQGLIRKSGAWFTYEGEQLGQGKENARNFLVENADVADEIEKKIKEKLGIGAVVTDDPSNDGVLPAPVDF
# YopH PTP inh = blocks Yersinia enterocolitica YopH tyrosine phosphatase; fluorescence Ex485/Em525; AID 898; 0.16% of 140,000 active; inhibition, %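 (about 10 µM by stock and volumes)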;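 active means inhibition of 50% or more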;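 further: controls were vehicle for no effect and minimum signal wells for full effect; inactives centre near -20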
# Arbovirus anti repeat = further read-out of Arbovirus anti, marked with its call; inhibition, %; measured here: 10K subset replicate screen; many hits read low in the repeat;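 first of two repeat runs on a subset; 0% = infected and 100% = uninfected wells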
# Numbers without * were called inactive; ? = inconclusive; . = not tested or not shown. The list is partial. The share of hits here may be higher or lower than overall.
SMILES,Mtb growth,Arbovirus anti,Mtb betalactam,RecA splice inh,YopH PTP inh,others
CC(=O)N(c1nc(CCl)cs1)c1c(C)cc(C)cc1C,1%,3,4,2.7,2,
O=C(NCCc1ccc(Cl)cc1)c1nnc(Cc2ccc(Cl)cc2)o1,.,7,-8,0.1,-34,Arbovirus anti repeat=2
Cc1cc(C(=O)OCC(=O)Nc2nnc(C(C)C)s2)c2ccccc2n1,7%,3,1,-2.0,-33,
N#CCCN(C(=O)COC(=O)c1ccc2c(=O)n3c(nc2c1)CCC3)c1ccccc1,0%,7,-3,-0.6,.,
CCN(CC)c1ccc2c(c1)C(=O)N(C)C2=O,7%,8,-13,-6.1,40,
COc1ccc(-c2cn3cc(C(=O)NN)ccc3n2)cc1,3%,-6,4,-2.2,.,
COc1ccc(S(=O)(=O)Nc2noc3ccccc23)cc1OC,.,.,11,-3.3,.,
O=C(O)C1(c2ccccc2)CCN(S(=O)(=O)c2ccc(Cl)cc2)CC1,.,.,-1,-0.4,.,
OCCC1CN(Cc2cnc(-c3ccccc3)s2)CCN1C1CCCCC1 (configuration not stated),2%,-10,-8,0.1,.,
O=c1cc(N2CCc3ccccc3C2)[nH]c(=O)n1-c1ccc(Br)cc1,-6%,0,-4,0.8,-1,
CCCOc1ccc(CC(=O)N/N=C\c2ccc(F)cc2)cc1,.,.,2,0.5,.,
COc1cc2c(cc1OC)-c1cc(Nc3ccccc3C)nc(=O)n1CC2,.,.,-3,-0.4,.,
CC(CN1CCOCC1)OC(=O)c1ccc(Cl)cc1Cl (configuration not stated),.,.,-1,-4.6,.,
CCCN1CCN(C(c2cc3cc4c(cc3[nH]c2=O)OCO4)c2nnnn2C(C)(C)C)CC1 (configuration not stated),4%,6,-7,-7.1,-30,
Nn1c(SCC(=O)Nc2ccccc2)nnc1-c1cccnc1,4%,0,-1,-1.2,-15,
CCOC(=O)CNC(=O)Cn1cnc2c(nnn2-c2ccccc2)c1=O,.,.,-4,-7.7,.,
CCc1ccc(NC(=O)N(CCN2CCOCC2)Cc2ccc3c(c2)CCCN3CC)cc1,1%,2,-3,.,-23,
CCOc1ccc2[nH]c(SCC(=O)OC)c([N+](=O)[O-])c2c1,?,-7,90,-85,.,
OCC1(c2cc(C(F)(F)F)n[nH]2)CCCCC1,-6%,8,-7,-0.7,-24,Arbovirus anti repeat=2
O=C(CN1C2=NCCCN2c2ccccc21)c1cccc(Br)c1,3%,5,6,-4.0,-17,
CCNS(=O)(=O)c1ccc(NC(=S)NCc2ccco2)cc1,4%,13,-2,-2.9,-19,
CCOC(=O)C1CCN(Cc2nnc(-c3ccccc3C)o2)CC1,.,.,5,-5.4,.,
COCC(C)OC(=O)c1c(N)n(CCCN2CCOCC2)c2nc3ccccc3nc12 (configuration not stated),-6%,.,8,-97,.,
CC(C)(C)c1ccc(OC(=O)Cn2c(C(F)(F)F)nc3ccccc32)cc1,.,8,-3,3.5,-4,
O=C(C1CCCN(c2nnc(-n3cccc3)s2)C1)N1CCN(c2ccccc2)CC1 (configuration not stated),63%,-5,19,2.1,-34,Arbovirus anti repeat=-1
COc1ccc(C(=O)Nc2c(O)ccc3ccccc23)cc1OC,.,.,-3,1.0,.,
C/C(CC(=O)Nc1cc(C)ccn1)=N\NC(=O)c1cccc(F)c1,.,.,-4,43*,.,
N#Cc1c(F)cccc1NCc1cccs1,-10%,.,1,.,.,
c1ccc(-c2cccc(-c3ccccn3)n2)nc1,-2%,-7,19,-17,-30,
CCc1noc(C)c1C(=O)NNC(=O)c1nn(CC)c(=O)c2ccccc12,.,.,2,5.0,.,
COc1ccccc1C(=O)NCCOc1ccc(C(C)(C)C)cc1,.,.,8,11,.,
CCOC(=O)C1=C(C)SC2=NS(=O)(=O)CCN21,-14%,6,10,-1.7,-35,
O=C(Nc1ccc(F)cc1)C1CCC(N2C(=O)c3ccccc3C2=O)CC1 (configuration not stated),-2%,7,-4,-1.0,-24,Arbovirus anti repeat=0
COCC(C)n1c(C)cc(C(=O)CSc2nnnn2-c2ccc(O)cc2)c1C (configuration not stated),0%,0,-2,2.7,.,
Brc1ccc(CN2CCCCCC2)cc1,.,.,44,-0.5,.,
O=C1c2ccccc2NC(c2ccc3c(c2)OCCO3)N1c1ccc2c(c1)OCCO2 (configuration not stated),-8%,1,-5,9.4,-28,Arbovirus anti repeat=1
CCOC(=O)c1c(-c2ccc(C)cc2)csc1NC(=O)CCN1CC(C)OC(C)C1 (configuration not stated),.,3,7,8.1,9,
CCO[C@@H]1OC(C(=O)NCc2nc3ccccc3[nH]2)=C[C@H](C2CCCCC2)[C@H]1CCCO,0%,-12,0,-0.7,.,
COc1ccc(CC(=O)Nc2cccc(C(=O)NN3C(=O)c4ccccc4C3=O)c2C)cc1,-2%,5,-9,0.3,-13,
O=C(O)c1cccc(-c2ccc(/C=N/NC(=O)C3COc4ccccc4O3)o2)c1 (configuration not stated),2%,1,4,-1.5,.,
CCCOc1cccc(OCCSc2nc(C)cc(=O)[nH]2)c1,-1%,3,-3,1.7,-36,
O=C(CCC(=O)N1CCN(c2ccc(Cl)c(Cl)c2)CC1)c1ccccc1,.,.,75,-4.6,.,
Cc1nc2ccccc2c(=O)n1-c1ccc(NS(=O)(=O)c2ccc(F)cc2)cc1,.,.,-14,1.0,.,
Cc1cc(C)nc(N2CCN(CC(=O)NCc3ccccc3)CC2)n1,-2%,0,-8,8.0,-19,
COC(=O)Cc1[nH]n(-c2nc3ccccc3s2)c(=O)c1C(C)=Nc1ccc(C)cc1,1%,1,-5,0.4,.,
FC(F)Sc1nc(-c2ccccc2)c(-c2ccccc2)n1C(F)F,11%,-9,7,3.0,-21,
Cc1ccc(-n2c(O)c(C=NC3CCCC3)c(=O)[nH]c2=O)c(C)c1,-5%,5,-6,.,-12,
Cc1ccc(C)c(NCc2n[nH]c(=S)n2-c2ccccc2)c1,-14%,12,3,2.2,.,

# Of the compounds above, these contain an aryl methoxy group:
SMILES,Mtb growth,Arbovirus anti,Mtb betalactam,RecA splice inh,YopH PTP inh,others
COc1ccc(-c2cn3cc(C(=O)NN)ccc3n2)cc1,3%,-6,4,-2.2,.,
COc1ccc(S(=O)(=O)Nc2noc3ccccc23)cc1OC,.,.,11,-3.3,.,
COc1cc2c(cc1OC)-c1cc(Nc3ccccc3C)nc(=O)n1CC2,.,.,-3,-0.4,.,
COc1ccc(C(=O)Nc2c(O)ccc3ccccc23)cc1OC,.,.,-3,1.0,.,
COc1ccccc1C(=O)NCCOc1ccc(C(C)(C)C)cc1,.,.,8,11,.,
COc1ccc(CC(=O)Nc2cccc(C(=O)NN3C(=O)c4ccccc4C3=O)c2C)cc1,-2%,5,-9,0.3,-13,

# (cont.)
SMILES,Mtb growth,Arbovirus anti,Mtb betalactam,RecA splice inh,YopH PTP inh,others
CC(C)NCC(O)COCc1ccc(Cl)cc1 (configuration not stated),14%,1,-5,-0.7,-4,
CCc1cc(C(=O)NCC(C)(C)N2CCOCC2)sc1C,.,.,-2,-2.0,.,
O=C(Cn1c(=O)oc2ccccc21)Nc1ccc(Br)cc1,.,.,4,-0.5,.,
O=C(COc1ccc(Br)cc1)N1CCc2ccccc21,-1%,.,-7,1.2,.,
Cc1ccc(C(O)(c2ccccc2)c2ccccc2C(C)N(C)C)c(C)c1 (configuration not stated),12µM*,-40,16,3.6,-35,
CCN1CCN(C(c2ccccc2F)c2nnnn2Cc2ccc3c(c2)OCO3)CC1 (configuration not stated),3%,1,-4,0.4,-27,
CC(=C/c1ccccc1)/C=N/Nc1nc(N2CCOCC2)nc(N2CCOCC2)n1,5%,9,7,-2.1,-24,
CCCCc1ccc(NC(=O)CSc2nc(=O)n(CCN(CC)CC)c3c2CCCC3)cc1,.,.,0,7.9,.,
OCCN1CCN(CC(O)COCC2COc3ccccc3O2)CC1 (configuration not stated),-7%,0,0,0.2,.,
N#Cc1c[nH]n2c(=O)c3c(nc12)CCC3,-8%,-1,-7,-2.4,.,
CCOC(=O)c1c(-c2ccccc2)csc1NC(=O)CSc1nnc(C)s1,17%,-2,7,0.8,-20,
O=C(O)CCC(=O)NNC(=O)c1ccc([N+](=O)[O-])cc1,.,.,7,-1.6,.,
CC(=O)c1c(C)[nH]c(C(=O)COC(=O)c2cc(S(=O)(=O)N(C)c3ccccc3)ccc2Cl)c1C,0%,8,-3,1.4,-27,
Cn1c(Cl)cnc1C(O)(c1ccccc1)c1ccccc1,-6%,.,-2,.,.,
NC(N)=Nc1nc(CCN2C(=O)c3ccccc3C2=O)cs1,-5%,7,5,-3.1,-7,
Cc1nc(Nc2cccc(O)c2)c2oc3ccccc3c2n1,.,.,-1,-1.6,.,
CN(C)S(=O)(=O)c1cccc(-c2csc(=Nc3ccccc3)n2CCCN2CCOCC2)c1,6%,.,6,3.3,.,
O=[N+]([O-])c1ccc(/C=N/NC(=S)Nc2ccccc2)o1,3%,-5,65,-1.2,-19,
O=C(NC(Cc1ccccc1)C(=O)O)/C(=C/c1ccc(Cl)cc1)NC(=O)c1ccccc1 (configuration not stated),-6%,-7,1,-0.6,.,
COc1cccc(N2CCN(c3ccc4nnc(CCC(=O)Nc5ccc(F)cc5)n4n3)CC2)c1,.,.,-5,0.3,.,
CC1CCN(CC(=O)c2cccs2)CC1,-2%,1,-3,6.7,.,
CC(C)(C)c1cc(C(=O)NNc2ccc(OC(F)(F)F)cc2)n(Cc2ccccc2)n1,?,.,95,1.3,.,
CCN(CC)S(=O)(=O)c1ccc(Nc2ccc(-c3ccc4c(c3)OCCO4)nn2)cc1,-16%,-13,3,1.7,-26,
O=C(O)Cc1ccc(C(=O)c2ccc(Cl)cc2)s1,-4%,1,-17,0.6,-5,
Cc1c(C)n(C(=O)CN2CCC(C(N)=O)CC2)c2ccccc12,5%,-2,-1,-14,6,
O=[N+]([O-])c1cc(/C=N/NC(=S)Nc2ccccc2Cl)ccc1Cl,22%,3,-4,2.2,.,
O=C(CSc1nnc2ccccn12)NCCN1C(=O)CSC1=O,1%,8,-10,-2.1,-6,
CN(C)S(=O)(=O)c1ccc(C(=O)Nc2nnc(SCc3cccc4ccccc34)s2)cc1,0%,3,8,1.2,-23,
CSc1cccc(NC(=O)c2[nH]c(C)c(C(C)=O)c2C)c1,.,.,3,-1.3,.,
CCOc1ccc(OCc2ccc(C(=O)NCc3ccncc3)o2)cc1,0%,3,9,.,2,
CC1=C(C(=O)OCc2ccccc2)C(c2ccc([N+](=O)[O-])cc2)NC(=O)N1CCCC(=O)O (configuration not stated),.,.,-1,-1.4,.,
COc1cc(/C=C2\NC(=S)N(C)C2=O)ccc1OCc1ccccc1F,.,.,-10,0.9,.,
O=C(NCCS(=O)(=O)NCc1ccc2c(c1)OCO2)c1ccccc1,.,.,-6,0.1,.,
O=C(CC1CCC1)NC(c1ccccc1)c1ccccc1,8%,4,9,0.6,.,
COc1ccc(/C=N/NC(=O)C(C)Sc2ccccn2)cc1[N+](=O)[O-] (configuration not stated),-3%,-1,2,2.3,.,
COc1cc(C#N)c(NC(=O)CN2CCN(CCO)CC2)cc1OC,7%,5,6,-1.6,.,

# The final three records of the part above open the next one.
SMILES,Mtb growth,Arbovirus anti,Mtb betalactam,RecA splice inh,YopH PTP inh,others
O=C(CC1CCC1)NC(c1ccccc1)c1ccccc1,8%,4,9,0.6,.,
COc1ccc(/C=N/NC(=O)C(C)Sc2ccccn2)cc1[N+](=O)[O-] (configuration not stated),-3%,-1,2,2.3,.,
COc1cc(C#N)c(NC(=O)CN2CCN(CCO)CC2)cc1OC,7%,5,6,-1.6,.,
Cc1nnc(SC(C)C(=O)NCC2CCCO2)n1-c1ccccc1 (configuration not stated),-9%,7,-9,4.4,-23,
CCN(CC)CC(C)(C)NS(=O)(=O)c1ccc(Cl)cc1,-11%,-2,11,-3.1,-22,
COc1ccc(/C=N\NC(=O)c2c(C)nc3ccc(Br)cn23)cc1,-8%,-7,-2,-0.3,-32,
CC(=O)Nc1ccc(S(=O)(=O)N2CCC(Oc3ccc(-n4cnnn4)cc3)CC2)cc1,.,.,-3,-2.7,.,
COCC(=O)Nc1ccc(Nc2ccccc2)cc1,-8%,-19,-7,8.9,-8,
O=C(NC(Cc1ccccc1)C(=O)O)NC12CC3CC(CC(C3)C1)C2 (configuration not stated),.,.,-6,-1.3,.,
CN1C(=O)/C(=C/c2ccc(OC(=O)c3ccco3)cc2)SC1=S,.,.,2,0.4,.,
C=C1CCN(c2ccc(C(=O)NCc3ccccc3)cc2[N+](=O)[O-])CC1,.,.,-4,5.7,.,

# Screening data deposited in PubChem by several laboratories.
